PABP FP inh – PABP poly(A) RNA binding inhibitors, primary screen, biochemical, fluorescence polarization, uHTS; 290,000 compounds, 1% hits; Polyadenylate-binding protein 1 (Homo sapiens), P11940; AID 2014, 2009; inhibition, % at 35 µM;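 active means 50% or more with normal probe brightness, or confirmed in later tests; about a fifth of its hits are not listed in these tables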;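 further: calls also rest on retests at 20 µM and on dose response follow-up; controls were probe without protein and protein plus probe with vehicle; some compounds called inactive have numbers as strong as hits; many hits fall short of the cut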
CSC inhib – cancer stem cell viability inhibitors, primary screen, luminescence | 300,000 compounds, 1.1% hits | inhibition, % at 7.5 µM | cancer stem cell-like cells viability;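 active means mean at 75% or more and at least half the replicates too; tested in HMLE shEcad cells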;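 further: 0% = median of negative and 100% = median of positive control wells; the first replicate is given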
Yeast UUG start – modulators of yeast start codon fidelity, primary screen, whole organism, S. cerevisiae, single point, plate reader; S. cerevisiae UUG-firefly luciferase reporter, luminescence/redox ratio; activity score, % at 18.7 µM; 350,000 compounds, 0.13% hits;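 active means replicate mean at a twofold rise or more, about +100% in these data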;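 further: firefly luciferase made from a UUG start codon reports start codon fidelity; reporter light over untreated wells divided by growth signal over untreated wells; some hits fall short of that in this replicate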
eIF4H FP inh – human eIF4H binding inhibitors, primary screen, translation initiation inhibitor project, biochemical, uHTS, fluorescence polarization | Eukaryotic translation initiation factor 4H (Homo sapiens), Q15056 | eIF4H fluorescence polarization binding assay | inhibition, % at 35 µM | 290,000 compounds, 0.94% hits | AID 2012, 2009;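 active means 50% or more with normal probe brightness, or confirmed in later tests; about a fifth of its hits are not listed in these tables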;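 further: calls also rest on retests at 20 µM and on dose response follow-up; 0% = protein and probe with vehicle and 100% = probe without protein; strong numbers were not always called active; many hits fall short of the cut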
Rce1 inh – yeast Rce1p protease inhibitors, primary screen, biochemical, fluorescence, cell-free homogeneous; yeast membranes, quenched prenylated peptide cleavage fluorescence; AID 2563, 2010; CAAX prenyl protease 2 (Saccharomyces cerevisiae (strain ATCC 204508 / S288c)), Q03530; calls only; 290,000 compounds, 0.27% hits;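 active means fall in fluorescence gain of 50% or more versus controls, with final raw signal at or below 3038400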;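 further: plate controls were neutral control wells for no effect and wells lacking membranes for full effect; tested at 10 µM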
Target sequence (Q03530 whole entry, looked up): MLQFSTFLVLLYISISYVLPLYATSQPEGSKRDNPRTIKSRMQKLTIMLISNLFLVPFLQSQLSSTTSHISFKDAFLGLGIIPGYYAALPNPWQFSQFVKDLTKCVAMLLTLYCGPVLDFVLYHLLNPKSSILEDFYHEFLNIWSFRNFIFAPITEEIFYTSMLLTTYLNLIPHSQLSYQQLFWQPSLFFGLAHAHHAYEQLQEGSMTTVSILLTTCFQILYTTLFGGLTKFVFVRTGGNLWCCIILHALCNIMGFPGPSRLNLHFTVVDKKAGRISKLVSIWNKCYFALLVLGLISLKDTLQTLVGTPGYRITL
MT1-MMP act inh – blockers of MT1-MMP proenzyme processing, primary screen, HT1080 RFP-PRO-GFP cells, GFP/RFP fluorescence. GFP/RFP ratio fluorescence, overnight; percent of plate control window, DMSO zero. GFP/RFP ratio change, % at 20 µM. 360,000 compounds, 0.061% hits;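 active means GFP/RFP ratio change of at least 30% with cell ATP level not reduced by more than half and red fluorescence within 50% of control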; further: strong numbers were not always called active
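Assay system: HT1080 cells carrying an RFP-PRO-GFP reporter | Dosing: Single dose of 20 µM compound, 1% DMSO final | Incubation: Cells overnight before dosing, compound overnight, 37 °C, 5% CO2 | Evaluation: GFP/RFP fluorescence ratio | Control set: DMSO and RFP-L50D-GFP cell wells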
Env fusion inh – inhibitors of HIV-1 Env-driven cell-cell fusion, primary screen, HeLa-JRFL effector, CEM21 target cells, luciferase; 360,000 compounds, 1.1% hits; AID 651610, 2012; inhibition, % at 12.3 µM;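 active means mean replicate inhibition score of at least 50 and every replicate individually at or above 50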;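 further: 0% = plate neutral controls and 100% = maraviroc near 300 nM; one replicate is shown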
eIF4H FP inh retest – recorded beside eIF4H FP inh, whose call it bears; inhibition, %; compound at 20 µM; confirmation average;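 mean of two retest wells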
PABP FP inh retest – further read-out of PABP FP inh, marked with its call; inhibition, %; compound at 20 µM; confirmation repeats;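 mean of two retest wells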
MT1-MMP act inh RFP – second read-out of MT1-MMP act inh, no call of its own (marks repeat the call); RFP signal change, %; measured here: RFP expression control read;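 0 = vehicle wells; hits needed this value within 50% of zero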
Active calls of the source: *; i = inactive; / = no result given. This is a subset; the hit share may differ from the screen's.

SMILES	PABP FP inh	CSC inhib	Yeast UUG start	eIF4H FP inh	Rce1 inh	MT1-MMP act inh	MT1-MMP act inh RFP	Env fusion inh	others
Cn1c(Cc2cccc3ccccc23)nnc1SCC(=O)N1CCN(c2cccc(Cl)c2)CC1	-8	6	-16	-7	i	-6	-28	94*
Cc1ccc(NC(=O)CN2c3cccc4cccc(c34)S2(=O)=O)cc1S(=O)(=O)N1CCOCC1	-5	5	/	8	i	3	-8	11
COc1ccc(C(F)(F)F)cc1N/C=C/c1nnnn1-c1ccc(C)cc1	-1	4	1	-6	i	-2	-3	6
COc1cccc(-c2cc(C(F)(F)F)nc(N3CCCCC3)n2)c1	-5	24	0	-5	/	-1	-1	-151
COc1ccc(CCC(=O)NCCOc2ccc(Cl)cc2)cc1	4	-6	-11	9	i	0	-1	-1
CN1CCN(C(=O)C(=O)c2cn(CC(=O)N3CCCCCC3)c3ccccc23)CC1	/	/	-33	/	/	-2	0	-14
Cc1cc(C=C2C(=O)c3ccccc3C2=O)c(C)n1-c1ccccc1	32	/	11	57	i	0	-11	-115	eIF4H FP inh retest=-1;PABP FP inh retest=10
CCOC(=O)N1CCN(C(=O)c2cc(-c3ccc(OCC)cc3)nc3ccccc23)CC1	-2	/	-16	-1	i	1	-16	-302
COCCNC(=O)c1cc(-c2cccs2)on1	-13	1	-2	-2	i	7	7	-364
On1nnc2c3ccccc3c3ccccc3c21	1	/	/	-4	i	3	2	6
COc1ccc(Cl)cc1NC(=S)NCc1cccnc1	-17	-14	-14	6	i	5	4	-4
C/C(=N\Nc1c([N+](=O)[O-])c(C)nn1C)c1ccc(F)cc1F	-13	-4	-30	2	i	-10	-2	-3
Cc1ccc2nc(N(CCCN(C)C)C(=O)c3ccc(S(=O)(=O)N(C)C)cc3)sc2c1	12	-5	/	-5	i	3	9	8
CCCc1nnc(NC(=O)CS(=O)(=O)c2ccc(C)cc2)s1	11	7	2	-7	i	2	-1	4
CCOc1ccc(NC(=O)CCC(=O)NNC(=O)COc2ccc(C)cc2Br)cc1	-6	/	-10	0	i	3	-1	-18
CC(C)(C)OC(=O)C[C@H]1C/C=C\C[C@@H](CC(=O)NCCO)C(=O)NC[C@@H](c2ccccc2)OC1=O	/	-9	16	/	/	0	7	-2
CC1CCCC(C)N1C(=O)COC(=O)c1ccc2ccccc2n1 (stereo not given)	/	-8	-17	/	/	-3	-1	/
CC(C)(C)OC(=O)C[C@H]1C/C=C\C[C@@H](CC(=O)NCCO)C(=O)NCCOC1=O	/	/	25	/	/	0	0	8
Cc1ccc(S(=O)(=O)c2cc3c(=O)n4ccccc4nc3n(Cc3ccco3)c2=N)cc1	83*	6	-13	78*	i	-14	0	35
COc1ccc(C(=O)NCCS(=O)(=O)NCc2ccc(F)cc2)cc1	/	/	-14	/	i	-3	1	-46
CNC(=O)CC(=O)Nc1ccccc1C(=O)O	8	-8	-16	2	i	0	3	/
Cc1ccc(C)c(OCC(O)CN2CCCCC2C)c1 (stereo not given)	2	-5	23	3	i	4	8	/
O=C(N/N=C/c1c(O)n(Cc2ccco2)c(=O)[nH]c1=O)c1ccccc1	8	-5	-29	10	i	-1	7	11
Cc1cccc(-n2ncc3c(N(C)Cc4ccccc4)ncnc32)c1	9	11	-16	-3	i	8	-7	-174
Cc1ccc(-c2cnc(SCCNC(=O)c3ccco3)[nH]2)cc1	/	-1	-15	/	i	7	3	-26
CCCCn1c(SCc2ncc(-c3ccccc3)o2)nc2cc(S(N)(=O)=O)ccc21	4	-5	/	1	i	11	-16	32*
Cc1cc(C)c[n+](C(C)C(=O)c2ccc(-c3ccccc3)cc2)c1 (stereo not given)	-6	28	-18	-1	i	-8	-24	37
CCCOc1ccc(C(CC(=O)O)NC(=O)c2ccc3c(c2)OCO3)cc1 (stereo not given)	6	-14	-5	13	i	-1	2	-94
Cc1ccc(N2C(=O)C3CC(c4ccccc4)=C4C5C=CC(C6C(=O)N(c7ccc(C)cc7)C(=O)C56)C4C3C2=O)cc1 (stereo not given)	-6	-8	/	-6	i	0	-8	/
COCc1c(C(=O)N/N=C(/C)c2cccs2)nnn1-c1nonc1N	-4	/	-24	5	i	2	2	3
CCCCN(C)c1ccc([N+](=O)[O-])cc1	-1	2	-12	-5	i	4	0	-22
CSc1ccc(CNC(=O)c2c(C)noc2C)s1	6	-14	-10	1	i	4	-1	2
CCOC(=O)C1(CCc2ccccc2)CCN(Cc2ccn[nH]2)CC1	-2	5	-14	-4	/	0	2	2
O=C(C1CC1)N1N=C(c2ccccc2)CC1(O)C(F)(F)C(F)(F)F (stereo not given)	1	-4	-9	10	i	2	-2	5
CCOC(=O)C(=CNc1ccccc1N1CCOCC1)C(=O)OCC	2	-9	0	-23	i	-6	0	1
COc1ccc(N(C(=O)c2ccc(S(=O)(=O)N3CCCC3)cc2)C2C=CS(=O)(=O)C2)cc1 (stereo not given)	-3	-6	-12	-12	i	-3	-2	5
Fc1cccc(CSc2nc3ccncc3[nH]2)c1	-9	-6	-38	-3	i	12	4	-32
O=C(c1ccc(Cl)cc1)C1CCN(CC(=O)N2CCCCC2)CC1	2	6	-14	-9	i	-1	1	17
CCOC(=O)n1cc(-c2cnc(CNC(=O)C(C)(c3ccccc3)c3ccccc3)o2)c2ccccc21	0	-12	/	3	i	/	/	40
NC(N)=NC(N)=Nc1ccc2ccccc2c1	-12	-6	-25	-8	i	-1	-3	1
Cc1ccc(OCCCCN2CCc3ccccc3C2)cc1	-12	45	-8	-1	i	4	4	14
Cc1ccc(C)c(NC(=O)C(=O)NCC2CCCN2S(=O)(=O)c2cccs2)c1 (stereo not given)	/	-6	-10	/	i	0	-5	8
CCCC(O)(CCC)C(=O)NN(C(=O)OC)c1ccccc1	2	5	-23	-3	/	-7	-4	-12
Cc1cc(=O)oc2cc(OCC3CC(c4ccccc4)=NO3)ccc12 (stereo not given)	-9	52	11	-9	i	-5	-12	/
C=C[C@@H]1c2cc(C)ccc2N(S(=O)(=O)c2ccc(C)cc2)[C@H](c2ccccc2)C1(C#N)C#N	/	41	-15	/	/	-3	-8	28
CCN(CC(=O)NC1CCS(=O)(=O)C1)S(=O)(=O)c1ccccc1 (stereo not given)	-8	-2	-17	-4	i	1	4	-6
COc1ccc(S(=O)(=O)N(CC(=O)NCc2ccncc2)c2cc(C)cc(C)c2)cc1OC	6	-10	-10	-9	i	-5	-2	-54
COC(=O)C1C2C=CC(C3CC23)C1C(=O)OCC(=O)c1ccc(OC)cc1 (stereo not given)	-7	-18	2	-11	/	3	-2	19
Cc1cc(NS(=O)(=O)c2ccc(NC(=O)c3cccnc3)cc2)nc(C)n1	2	-26	-17	8	i	1	4	2
CCOc1ccc(CN(C)C(=O)c2ccc3ccccc3n2)cc1	5	-22	0	-22	/	-2	1	16
C=C(C)CSc1nnc2n(N)c(=O)c3ccccc3n12	9	/	-23	4	i	-2	4	-33
COCCCNc1oc(-c2ccccc2Cl)nc1C#N	7	/	/	5	i	4	-3	-4
Cc1c(C(=O)OCC(=O)N2c3ccccc3CC2C)oc2ccccc12 (stereo not given)	-3	7	-3	7	i	2	3	9
COc1ccc2nc(Cl)cc(Cl)c2c1	1	1	-14	7	i	1	0	-27
O=C(CCn1c(=O)sc2ccccc21)NCCCn1ccnc1	-1	-16	-12	-8	i	2	2	-87
CCOc1ccc(S(=O)(=O)NCCC(=O)NCC(c2ccc(OC)cc2)N2CCCC2)cc1 (stereo not given)	/	-11	-8	/	/	2	3	-25
O=C1Nc2c(Cl)cc(Cl)cc2C1=O	/	/	-10	/	/	-4	15	-88
O=C(O)C(Nc1nc(C(F)(F)F)nc2ccccc12)c1ccccc1 (stereo not given)	4	-24	-7	-16	i	-2	1	-4
COc1cccc(CNC(=O)CN(C)S(=O)(=O)c2ccc3c(c2)c(=O)n(C)c(=O)n3C)c1	-4	4	-13	5	i	2	5	-14
C[C@@]12C(=O)N(c3ccccc3)C(=O)N1[C@@H]1c3ccccc3OC[C@@H]1[C@H]2c1ccccc1	/	-9	-17	/	/	-8	-10	-11

Three successive records from above, for reference:
SMILES	PABP FP inh	CSC inhib	Yeast UUG start	eIF4H FP inh	Rce1 inh	MT1-MMP act inh	MT1-MMP act inh RFP	Env fusion inh	others
Cn1c(Cc2cccc3ccccc23)nnc1SCC(=O)N1CCN(c2cccc(Cl)c2)CC1	-8	6	-16	-7	i	-6	-28	94*
Cc1ccc(NC(=O)CN2c3cccc4cccc(c34)S2(=O)=O)cc1S(=O)(=O)N1CCOCC1	-5	5	/	8	i	3	-8	11
COc1ccc(C(F)(F)F)cc1N/C=C/c1nnnn1-c1ccc(C)cc1	-1	4	1	-6	i	-2	-3	6

Some of these compounds in order of molar mass, low to high.
SMILES	PABP FP inh	CSC inhib	Yeast UUG start	eIF4H FP inh	Rce1 inh	MT1-MMP act inh	MT1-MMP act inh RFP	Env fusion inh	others
Cc1cc(=O)oc2cc(OCC3CC(c4ccccc4)=NO3)ccc12 (stereo not given)	-9	52	11	-9	i	-5	-12	/
Cc1ccc(C)c(NC(=O)C(=O)NCC2CCCN2S(=O)(=O)c2cccs2)c1 (stereo not given)	/	-6	-10	/	i	0	-5	8
CCOc1ccc(S(=O)(=O)NCCC(=O)NCC(c2ccc(OC)cc2)N2CCCC2)cc1 (stereo not given)	/	-11	-8	/	/	2	3	-25

The listing picks up; the three compounds before the break are reprinted first.
SMILES	PABP FP inh	CSC inhib	Yeast UUG start	eIF4H FP inh	Rce1 inh	MT1-MMP act inh	MT1-MMP act inh RFP	Env fusion inh	others
O=C(O)C(Nc1nc(C(F)(F)F)nc2ccccc12)c1ccccc1 (stereo not given)	4	-24	-7	-16	i	-2	1	-4
COc1cccc(CNC(=O)CN(C)S(=O)(=O)c2ccc3c(c2)c(=O)n(C)c(=O)n3C)c1	-4	4	-13	5	i	2	5	-14
C[C@@]12C(=O)N(c3ccccc3)C(=O)N1[C@@H]1c3ccccc3OC[C@@H]1[C@H]2c1ccccc1	/	-9	-17	/	/	-8	-10	-11
O=C(COC(=O)c1ccc(F)cc1)NCc1ccc(F)cc1	/	-10	-21	/	/	1	3	5
CCc1ccc(NS(=O)(=O)c2cc3c(cc2C)n(C)c(=O)c(=O)n3C)cc1	-4	8	5	-5	i	-5	-9	7
CC(C)(C)c1ccc(C(=O)N2CCC(C(=O)NCCC3=CCCCC3)CC2)cc1	-12	/	-12	-9	i	4	-7	/
Cc1cc(C(=O)OCC(=O)N(CC(C)C)c2c(N)n(Cc3ccccc3)c(=O)[nH]c2=O)c(C)o1	/	-2	-16	/	i	-7	-3	-12
CCCNc1c(NS(=O)(=O)c2cccs2)c(=O)oc2ccccc12	0	-13	-25	-8	i	5	1	8
Clc1ccc(CSC2=NCCCN2)cc1Cl	-11	-7	-7	18	i	1	-2	/
